Bioassay records deposited in PubChem BioAssay by Southern Research Institute.
Mtb growth: Mycobacterium tuberculosis H37Rv growth inhibition, putative kinase inhibitor library, confirmatory dose response (AID 2842) | M. tuberculosis H37Rv growth inhibition; higher % means a stronger effect; some inactives read as strong as hits | 24,000 tested, 5.2% active | inhibition, % at 10 µg/mL; hits with a dose series show IC90 in µg/mL;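 active = confirmed in a dose series; about a fifth of its hits are not listed in these tables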;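 also: bacteria incubated one week before Alamar blue readout; 0% = bacteria only wells and 100% = bacteria with high antibiotic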
* hit, by the source's call. Some of the compounds tested; rates above refer to the full screens.

Molecule,Mtb growth
CC(=O)Nc1nnc(SCc2cc(=O)c(OC(=O)c3ccco3)co2)s1,-10.2%
COc1cc2c(=O)c(S(=O)(=O)c3ccc(F)cc3)cn(Cc3ccccc3F)c2cc1OC,0.0%
O=c1[nH]c(-c2ccccc2O)nc2c1Cc1cc(Br)ccc1O2,-7.6%
O=C(N=Nc1c(O)[nH]c2ccccc12)c1cc(-c2ccc3ccccc3c2)n[nH]1,-2.5%
Cc1ccc(-n2c(=O)cc(N3CCN(c4ccccc4F)CC3)[nH]c2=O)cc1,-2.4%
O=C(Cn1cnc2c(cnn2-c2ccccc2)c1=O)NCc1ccco1,-7.5%
CC(=O)c1cc(OC(=O)N2CCOCC2)ccc1OC(=O)N1CCOCC1,-9.9%
O=C(c1ccccc1Cl)N1CCN(S(=O)(=O)N2CCCCC2)CC1,6.5%
O=C(CSc1ncc(S(=O)(=O)c2ccccc2)c(=O)[nH]1)Nc1ccc(F)cc1,-3.1%
COc1ccc(N2C(=O)C3N=NN(CC(=O)Nc4ccccc4)C3C2=O)cc1Cl (stereo not drawn),-12.7%
CC(Sc1n[nH]c(=O)[nH]c1=O)C(=O)O (stereo not drawn),-5.0%
Cc1oc2c(c1C(=O)O)C(=O)c1ccccc1C2=O,13.2%
CCOC(=O)c1nn(-c2ccc(C(F)(F)F)cc2)c(=O)c2c(NC(=O)/C=C/c3ccc4c(c3)OCO4)scc12,-4.7%
O=C(Cc1ccc(F)cc1)Nc1nnc(-c2ccccc2Cl)s1,-1.4%
Cc1ccc2sc(N(CCN(C)C)C(=O)c3cccc4ccccc34)nc2c1C,11.8µg/mL*
COc1cccc(NC(=O)c2oc3ccccc3c2NC(=O)CC(C)(C)C)c1,3.9%
Cc1ccc(C)c(-c2nnc(NC(=O)C3COc4ccccc4O3)o2)c1 (stereo not drawn),1.18µg/mL*
Cc1ccc(Sc2nc3c(c(=O)n(C)c(=O)n3C)n2Cc2ccc(Cl)cc2)cc1,-13.8%
CC(C)(C)c1ccc(C(=O)NC(=S)Nc2sc3c(c2C#N)CCC3)cc1,-3.1%
O=C(Nc1nnc(-c2ccc3c(c2)OCCO3)o1)c1nc2ccccc2s1,25.8µg/mL*
CCc1ccccc1NC(=O)CC1CCS(=O)(=O)C1 (stereo not drawn),-21.4%
COc1cccc2c1Oc1[nH]c(-c3ccccc3)nc(=S)c1C2,-6.5%
O=C1/C(=C/c2ccc(Cl)c(Cl)c2)Oc2cc(O)ccc21,-1.0%
O=C(Nc1cccc(-c2ccc3nnc(-c4cccnc4)n3n2)c1)c1cccc(F)c1,-0.7%
C=CCN1CC(c2nc3ccccc3n2CCCOc2cccc(C)c2)CC1=O (stereo not drawn),11.0%
Cn1c(Cn2c(=O)sc3ccccc32)nnc1SCC(=O)Nc1ccccc1,-4.1%
COc1ccc(N2CC(C)Cn3c2nc2c3c(=O)[nH]c(=O)n2C)cc1 (stereo not drawn),-0.9%
CCOc1ccccc1C1CC(=O)NC(SCC(N)=O)=C1C#N (stereo not drawn),-12.7%
COCCN(CCOC)S(=O)(=O)c1ccc(C(=O)Nc2sc3c(c2C#N)CCCCC3)cc1,-2.7%
O=C(CC(NCc1cccnc1)C(=O)O)Nc1ccc(Cl)cc1Cl (stereo not drawn),-3.4%
COc1ccc(C2C(C#N)=C(SC)NC(C)=C2C(=O)Nc2ccccc2C)cc1OC (stereo not drawn),1.4%
Cc1cc(C)c2nc(NNC(=O)c3ccc(F)cc3)sc2c1,3.98µg/mL*
CCOc1cc(-c2nnc(NC(=O)c3cc4cc([N+](=O)[O-])ccc4s3)o2)cc(OCC)c1OCC,10.8%
O=C(Nc1c(C(=O)Nc2ccc(Cl)cc2)oc2ccccc12)c1ccc(S(=O)(=O)N2CCOCC2)cc1,6.5%
O=C(NNc1ncnc2c1cnn2-c1cccc(Cl)c1)c1ccc(Cl)cc1,-2.5%
COc1ccc(NC(=O)Nc2nc(-c3ccc4c(c3)OCO4)cs2)cc1,4.0%
CCSc1nc(N)c(NC(=O)c2ccc(C)cc2)c(=O)[nH]1,5.0%
COc1ccc(C(=O)Nc2sc3c(c2C#N)CC(C)CC3)c(OC)c1 (stereo not drawn),-0.3%
COCCn1c(SCC(=O)Nc2nnc(C)s2)nc2c(c1=O)SC(C)C2 (stereo not drawn),0.2%
O=C(Nc1cccc([N+](=O)[O-])c1)c1ccc(Br)cc1F,9.7%
Cc1ccc(C(=O)Nc2cc(C)c3c(=O)oc4ccccc4c3n2)cc1[N+](=O)[O-],-3.0%
COC(=O)c1ccc(CSc2ncnc3ccccc23)o1,5.2%
Cc1cc2cc(CNC(=O)c3ccc([N+](=O)[O-])cc3)ccc2n1C,-9.1%
CN(Cc1ccccc1)S(=O)(=O)c1ccc(C(=O)Nc2nc3c(s2)CSc2ccccc2-3)cc1,-3.1%
CCOC(=O)c1[nH]c2ccccc2c1NC(=S)Nc1cccc(C)c1,30.7%
CC1(C)Cc2c(sc(NC(=O)C3CC3)c2C(N)=O)C(C)(C)N1,1.4%
CCc1ccc(NC(=O)CSc2nc(-c3cccs3)nc3c2c(=O)n(C)c(=O)n3C)cc1,-5.8%
COc1ccc(OC)c(NC(=O)c2oc3ccccc3c2NC(=O)c2ccccc2Br)c1,1.6%
Cc1ccc(N2C(=O)c3ccc(C(=O)OCC(=O)Nc4ccc(Cl)cc4C)cc3C2=O)c(C)c1,-2.9%
CCC(SCC(=O)OC)C(=O)Nc1nnc(-c2ccccc2)s1 (stereo not drawn),-2.7%
O=C(NNc1ncnc2c1cnn2-c1ccc(Cl)c(Cl)c1)c1ccco1,33.5%
CC(=O)c1cccc(NC(=O)CSc2nnc3ccc(-c4ccccn4)nn23)c1,-6.0%
NC(=O)c1oc2ccccc2c1NC(=O)c1ccc(Oc2ccccc2)cc1,-1.9%
COC(=O)c1ccc(C(=O)Nc2nc3c(ccc4ccccc43)s2)cc1,3.5%
COc1ccc(NC(=O)CSc2nnc(-c3cccnc3)n2-n2cccc2)cc1,-5.8%
CCNS(=O)(=O)c1ccc2nc(NS(=O)(=O)c3ccc(Br)cc3)sc2c1,-8.8%
Cc1cccc(NC(=O)CSc2nc3c(c(-c4ccco4)c2C#N)CCCC3)c1,0.5%
O=C(CSc1nc2c(c(=O)[nH]1)CN(Cc1ccc(F)cc1)CC2)Nc1ccc(Cl)cc1,10.9%
COc1ccc2nc(-c3cccc(NC(=O)C4CCCC4)c3)cn2n1,-13.9%
CCn1c(SCC(=O)Nc2nnc(C)s2)nc2c(c1=O)SC(C)C2 (stereo not drawn),-9.0%

More compounds
Molecule,Mtb growth
COC(=O)/C=c1/s/c(=C(\C#N)C(=O)Nc2ccccc2)n(-c2ccccc2)c1=O,-16.7%
O=C(CSc1nc2c(cnn2-c2ccccc2)c(=O)[nH]1)Nc1ccccc1,2.1%
Cc1nc2ccc(NC(=S)NC(=O)CN3C(=O)CCC3=O)cc2s1,-9.0%
Cc1sc2nc(SCCCC(=O)NCCO)[nH]c(=O)c2c1C,-16.5%
Fc1ccc2nc(Nc3ccc4c(c3)OCCO4)sc2c1,72.2%
Cn1c(=O)[nH]c(=O)c2c1nc(NCCC(=O)O)n2CC(O)COc1ccccc1 (stereo not drawn),-4.0%
CCCNc1nc2c(c(=O)[nH]c(=O)n2C)n1CCc1ccccc1,-5.8%
Cc1ccc(CNC(=O)CSc2ccc(-c3ccc(-n4ccnc4)cc3)nn2)cc1,2.1%
CN1CCN(C(c2ccco2)c2sc3ncnn3c2O)CC1 (stereo not drawn),-4.4%
CCOc1ccc(C(=O)NCCc2cc3c(C)ccc(C)c3[nH]c2=O)cc1,-2.4%
COc1cccc2sc(Nc3ccc(F)cc3)nc12,12.8%
COc1ccc(NC(=O)c2oc3ccccc3c2NC(=O)C2CCCC2)cc1OC,-6.0%

Following part:
smiles,Mtb growth
COC(=O)c1ccc(COc2coc(CN3CCc4ccccc4C3)cc2=O)o1,3.0%
COc1ccc(Nc2nc(Nc3cccc(Cl)c3)nc3nccnc23)cc1,2.3%
Cc1ccc(Nc2c(C)c(C)nc3c(-c4ccccc4)cnn23)cc1,8.1%
CCCCN(c1ccccc1)c1ncnc2nc[nH]c12,1.3%
Nc1ncnc(Nc2ccc(F)cc2Cl)c1[N+](=O)[O-],7.7%
Cc1nc2c(ccc3nc(NC(=O)c4ccc(Br)s4)sc32)s1,11.2%
CCOC(=O)c1nn(-c2ccc(F)cc2)c(=O)c2c(NC(=O)CC)scc12,-2.0%
CCc1nnc(NC(=O)CSc2ncnc3c2oc2ccccc23)s1,98.4%
C=C(C)Cn1c(SCCOC)nc2c1c(=O)[nH]c(=O)n2C,-2.5%
Cc1cc(=O)[nH]c2nnc(SCC(=O)N3CCN(c4ccccc4)CC3)n12,-7.6%
COc1ccc(NC(=O)c2ccc(S(=O)(=O)N3CC(C)OC(C)C3)cc2)c2ccccc12 (stereo not drawn),-1.0%
COc1ccc(-c2csc(NC(=O)CC3CCS(=O)(=O)C3)n2)cc1 (stereo not drawn),0.1%
Cc1cc(NC(=O)CSc2nc3c(c(=O)n2-c2ccc(Cl)cc2)SCC3)no1,-5.4%
COc1cccc(C(=O)Nc2c(C(N)=O)oc3ccccc23)c1,-3.5%
CSc1nc2ccc3nc(NC(=O)COc4ccc(Cl)cc4Cl)sc3c2s1,-10.0%
COc1ccc(/C=C/C(=O)Nc2nnc(-c3ccccc3Cl)s2)cc1OC,-13.2%
Cc1ccc(NCC(=O)Nc2ncc(Cc3cccc(C(F)(F)F)c3)s2)c(C)c1,6.5%
NC(=O)c1c(NC(=O)c2ccc(-c3ccccc3)cc2)sc2c1CCN(Cc1ccccc1)C2,5.9%
O=C1/C(=C/c2ccccc2F)Oc2c1ccc(O)c2CN1CCN(CCO)CC1,0.4%
CN1C(=O)c2cccc(NC(=O)c3ccc(Cl)s3)c2C1=O,-4.7%

Reprinted at random: four records from the list, in no set order.
smiles,Mtb growth
CCCCN(c1ccccc1)c1ncnc2nc[nH]c12,1.3%
Cc1cc(=O)[nH]c2nnc(SCC(=O)N3CCN(c4ccccc4)CC3)n12,-7.6%
COC(=O)c1ccc(COc2coc(CN3CCc4ccccc4C3)cc2=O)o1,3.0%
COc1ccc(-c2csc(NC(=O)CC3CCS(=O)(=O)C3)n2)cc1 (stereo not drawn),0.1%

Following part.
smiles,Mtb growth
COc1ccc2sc(Nc3cccc(Cl)c3)nc2c1,11.0%
CC1C(=O)N2CCCc3cc(NS(=O)(=O)c4cccs4)cc1c32 (stereo not drawn),3.7%
CCCN1CCc2c(sc(NC(=O)c3cc(C)ccc3C)c2C(N)=O)C1,45.9%
CC1C(=O)N2CCCc3cc(NC(=O)COc4ccccc4)cc1c32 (stereo not drawn),2.5%
CCOC(=O)c1oc2ccccc2c1NC(=O)c1ccc(C)c(C)c1,10.1%
CCOc1ccc(C(=O)Nc2cc(=O)n(C)c(=O)n2C)cc1,-3.0%
O=C(Nc1nnc(-c2cccc([N+](=O)[O-])c2)s1)C1CCCCC1,8.9%
N#Cc1ccc(-c2csc(NC(=O)c3ccc(Cl)s3)n2)cc1,11.7%
NC(=O)c1ccsc1NC(=O)c1cc(=O)c2ccccc2o1,-1.4%
Oc1[nH]c2ccccc2c1N=Nc1nc(-c2ccccc2)cs1,5.9%
COc1ccc(C(=O)Nc2nc3c(s2)C(=O)CC(C)(C)C3)cc1OC,-4.5%
COc1cc(C(=O)NC(=S)Nc2cccc3c2C(=O)NC3=O)cc(OC)c1OC,-8.7%
N#CC1=C(N)Oc2c(oc(CO)cc2=O)C1c1ccccc1Br (stereo not drawn),-2.0%
Cc1c(C(=O)Nc2nnc(-c3ccc(Cl)cc3Cl)s2)cccc1[N+](=O)[O-],10.4%
Cc1cc(SCC(=O)Nc2ccc(C)c(C)c2)n2ncc(-c3ccccc3)c2n1,18.8%
O=C(Nc1nnc(-c2ccc(F)cc2)o1)c1ccc2ncsc2c1,77.5%
Cc1ccccc1-c1nnc(NC(=O)CSc2nc3ccccc3s2)s1,3.6%
CC1=C(C(N)=O)C(c2ccc([N+](=O)[O-])cc2)NC(=O)N1 (stereo not drawn),-4.9%
COc1cccc(N2C(=O)/C(=C/c3ccc(O)c(O)c3)SC2=S)c1,1.6%
NC(=O)c1c(NC(=O)/C=C/c2ccc(Cl)cc2Cl)sc2c1CCCC2,-1.2%

Reprinted from the entries so far (2 entries):
smiles,Mtb growth
Cc1nc2ccc(NC(=S)NC(=O)CN3C(=O)CCC3=O)cc2s1,-9.0%
Cc1sc2nc(SCCCC(=O)NCCO)[nH]c(=O)c2c1C,-16.5%

(list continues)
smiles,Mtb growth
Cc1ccc(S(=O)(=O)n2nc(OC(=O)c3cccc4ccccc34)cc2N)cc1,-2.2%
O=C(Nc1sc2c(c1-c1nc3ccccc3s1)CCCC2)c1ccc(S(=O)(=O)N2CCCCC2)cc1,0.8%
CC1(C)CC(=O)c2cc3c(N)c(C(=O)Nc4ccc(Oc5ccccc5)cc4)sc3nc2C1,51.5%
CCOc1ccc(NS(=O)(=O)c2cc3c4c(c2)CCN4C(=O)CC3)cc1,0.5%
COc1ccc2nc(Cl)c(C3CC(c4cccs4)=NN3C(=O)c3ccco3)cc2c1 (stereo not drawn),-13.8%
Cc1cc(NC(=O)CSc2nc(=O)cc(N)n2-c2ccc(Cl)cc2)no1,-18.5%
CCCCCCn1c(SCc2ccc(Cl)cc2)nc2c1c(=O)n(C)c(=O)n2C,3.8%
Cc1nc2sc(C(c3ccccc3)N3CCCCC3)c(O)n2n1 (stereo not drawn),-2.2%
Cc1cccc(C(C)C)c1NC(=O)/C=C/c1cccc([N+](=O)[O-])c1,-6.6%
COc1ccc(-c2nnc3c4cc5c(cc4n(Cc4ccccc4OC)cc2-3)OCO5)cc1,8.6%
Cc1cc(C)cc(-n2nnc(-c3nc(-c4ccncc4)no3)c2N)c1,-6.7%

Three compounds already listed, ordered by SMILES length, largest number first:
smiles,Mtb growth
Cn1c(Cn2c(=O)sc3ccccc32)nnc1SCC(=O)Nc1ccccc1,-4.1%
Oc1[nH]c2ccccc2c1N=Nc1nc(-c2ccccc2)cs1,5.9%
CN1CCN(C(c2ccco2)c2sc3ncnn3c2O)CC1 (stereo not drawn),-4.4%
